Source: PubChem BioAssay
KCNQ2 block – KCNQ2 channel blockers in CHO-K1 cells – cell-based, FluxOR thallium flux, B-score, primary screen (AID 2156); O88943; 20 min; active compounds read low; only compounds with negative scores are shown here; some inactives read as strong as hits; B-score at 10 µM; 310,000 compounds, 1.1% hits;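 active means fluorescence ratio B-score at most minus 3 library SDs, with starting brightness B-score within 2 library SDs, cut at about -5.5 in these data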
Target sequence (O88943 whole entry, looked up): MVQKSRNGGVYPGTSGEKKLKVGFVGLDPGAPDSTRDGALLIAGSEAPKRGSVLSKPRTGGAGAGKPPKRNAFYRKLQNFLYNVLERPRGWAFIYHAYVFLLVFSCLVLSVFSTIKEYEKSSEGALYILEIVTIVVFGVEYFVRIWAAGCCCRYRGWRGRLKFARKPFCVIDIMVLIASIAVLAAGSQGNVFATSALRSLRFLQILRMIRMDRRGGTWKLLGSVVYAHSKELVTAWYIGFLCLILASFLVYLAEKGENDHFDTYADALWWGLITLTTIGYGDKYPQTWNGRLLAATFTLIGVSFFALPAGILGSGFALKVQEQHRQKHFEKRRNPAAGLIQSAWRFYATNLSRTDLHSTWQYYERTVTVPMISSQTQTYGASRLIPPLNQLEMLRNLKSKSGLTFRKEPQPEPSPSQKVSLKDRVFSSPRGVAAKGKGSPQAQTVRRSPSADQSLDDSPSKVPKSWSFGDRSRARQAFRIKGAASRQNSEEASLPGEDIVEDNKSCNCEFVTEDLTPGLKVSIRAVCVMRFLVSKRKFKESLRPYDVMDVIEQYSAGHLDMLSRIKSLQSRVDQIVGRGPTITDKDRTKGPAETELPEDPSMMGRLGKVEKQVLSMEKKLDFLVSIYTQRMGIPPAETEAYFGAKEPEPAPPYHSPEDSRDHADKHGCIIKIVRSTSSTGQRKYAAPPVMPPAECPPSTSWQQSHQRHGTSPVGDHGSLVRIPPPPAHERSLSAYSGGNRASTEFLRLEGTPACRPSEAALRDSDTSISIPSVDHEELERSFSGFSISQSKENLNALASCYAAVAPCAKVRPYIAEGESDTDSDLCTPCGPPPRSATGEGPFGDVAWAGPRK
KCNQ2 block baseline – further read-out of KCNQ2 block, marked with its call; B-score; measured here: initial fluorescence intensity artifact check;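 brightness before thallium and not channel activity; 0 = typical well and far values either way flag optical interference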
The depositor's hits bear a star; i = inactive. An excerpt; the hit share may differ from the screen's.

item	KCNQ2 block	KCNQ2 block baseline	structure
1	i	-0.37	Cc1cc(C)nc(NC(=O)CSc2nn(-c3ccccc3)c(=S)s2)n1
2	i	0.63	O=C1/C(=C/Nc2cccc([N+](=O)[O-])c2)CCc2ccccc21
3	i	0.09	COc1cc(-c2noc(CCCC(=O)NCc3ccccc3)n2)cc(OC)c1OC
4	i	0.16	Cc1cccc(N(C(=O)CNC(=O)c2ccco2)C(C(=O)NC2CCCC2)c2ccncc2)c1C (stereo not drawn)
5	i	-2.4	Cc1cc(C)cc(NC(=O)CN2CCc3cc4c(cc3C2C)OCCCO4)c1 (stereo not drawn)
6	i	-0.94	COc1ccc(S(=O)(=O)N2c3ccc(F)cc3CCC2C)cc1 (stereo not drawn)
7	i	-2.1	CCOC(=O)CS(=O)(=O)c1nc(-c2ccccc2)cc(C(F)(F)F)n1
8	i	0.97	COc1ccc(-n2nc([N+](=O)[O-])c(=NCc3ccc4c(c3)OCO4)n2O)cc1
9	i	-1.1	CCS(=O)(=O)N1CCN(CC2CC3C=CC2C3)CC1 (stereo not drawn)
10	i	-2.6	O=C(Nc1ccc([N+](=O)[O-])cc1)C1(c2ccccc2)CCOCC1
11	i	0.92	Cc1ccc(SCC2(O)CCN(C(=O)c3ccc(Cl)cc3)CC2)cc1
12	i	2.2	CC(/C=N/NC(=O)Cc1cc(=O)[nH][nH]1)=C\c1ccccc1
13	i	-0.06	Cc1cccc(-c2c3c(=O)n(C)c(=O)n(C)c3c3cccnn23)c1
14	i	1.1	COc1cc(/C=C2/C(=O)NN(c3cccc(F)c3)C2=O)ccc1OC(=O)c1ccco1
15	i	-1.9	CN(Cc1cc(=O)n2ccsc2n1)C1CCCCC1
16	i	-0.51	COc1ccc(CNc2ccc(C)cc2)cc1Br
17	i	-0.41	O=C(CCN1CCCC1)c1cccs1
18	i	0.44	COC(=O)C(Cc1ccc(OC(=O)c2ccc(C(F)(F)F)cc2)cc1)N1Cc2ccccc2C1=O (stereo not drawn)
19	i	-0.01	Cc1cc(C)n2nc(SCC(=O)Nc3ccccc3)nc2n1
20	i	0.76	O=C(O)CC12CC3CC(C1)CC(n1ncc(NCc4ccc5c(c4)OCO5)c(Cl)c1=O)(C3)C2
21	i	0.57	O=C(NCCC1=CCCCC1)C1CCCN(S(=O)(=O)c2cnc[nH]2)C1 (stereo not drawn)
22	-6.2*	-0.15*	CCN(CC)c1ccc(/C=N/N2CCN(Cc3ccc(C)cc3)CC2)c(O)c1
23	i	-1.1	COc1cc(-c2nc(-c3ccccc3)c(-c3cc([N+](=O)[O-])ccc3C)[nH]2)cc(OC)c1OC
24	i	-0.13	COC(=O)CSc1ccsc1C(=O)O
25	i	-0.97	Cn1nc(C(=O)NCCc2ccc(Cl)cc2)c2c1-c1ccccc1S(=O)(=O)C2
26	i	3.5	CN(C)c1nc(=S)nc(NCc2ccccc2)[nH]1
27	i	1.5	CC(C)N1CCN(CC#Cc2ccccc2)CC1CCO (stereo not drawn)
28	i	1.1	Cc1cccc(C)c1NC(=S)N(CCN1CCCCCC1)Cc1ccco1
29	i	-0.17	COc1ccc(N2CC(C(=O)NCCCN3CCOCC3)CC2=O)cc1 (stereo not drawn)
30	i	3.3	Cc1nc(Nc2cccc(O)c2)c2c3c(sc2n1)CCC3
31	i	0.33	Cc1ccc(NC(=O)/C=N/OCC(=O)NCc2ccccc2Cl)cc1
32	i	0.88	O=[N+]([O-])c1ccc(S(=O)(=O)Nc2ccc(-c3csc(-c4ccccc4)n3)cc2)cc1

In the list so far, these contain a COOH group:
item	KCNQ2 block	KCNQ2 block baseline	structure
20	i	0.76	O=C(O)CC12CC3CC(C1)CC(n1ncc(NCc4ccc5c(c4)OCO5)c(Cl)c1=O)(C3)C2
24	i	-0.13	COC(=O)CSc1ccsc1C(=O)O

More results:
item	KCNQ2 block	KCNQ2 block baseline	structure
33	i	-0.34	NC(=O)c1ccc(CN2CCc3ccccc3C2)cc1
34	i	-0.52	COc1ccccc1-n1ccnc(SCC(=O)NCc2ccccc2)c1=O
35	i	0.29	CN(C)CCc1cc2c(c3c1ccc1ccccc13)OCO2
36	i	-0.07	CCc1ccccc1NS(=O)(=O)c1ccc2[nH]cc(C(=O)NCC3CCCO3)c(=O)c2c1 (stereo not drawn)
37	i	-1	O=C(COc1cccc(C(F)(F)F)c1)Nc1ccccc1N1CCCCC1
38	i	1.3	CC(C)CNC(=O)C1CCN(CC2CCCCC2)CC1
39	i	-0.28	O=C(CNC(=O)c1cccs1)NCC(=O)OCC(=O)c1ccc([N+](=O)[O-])cc1
40	i	0.01	CN(C)CCCNC(CC(=O)Nc1cccc([N+](=O)[O-])c1)C(=O)O (stereo not drawn)

Four entries from above, field by field.
34. COc1ccccc1-n1ccnc(SCC(=O)NCc2ccccc2)c1=O
  KCNQ2 block: i; KCNQ2 block baseline: -0.52
35. CN(C)CCc1cc2c(c3c1ccc1ccccc13)OCO2
  KCNQ2 block: i; KCNQ2 block baseline: 0.29
36. CCc1ccccc1NS(=O)(=O)c1ccc2[nH]cc(C(=O)NCC3CCCO3)c(=O)c2c1 (stereo not drawn)
  KCNQ2 block: i; KCNQ2 block baseline: -0.07
37. O=C(COc1cccc(C(F)(F)F)c1)Nc1ccccc1N1CCCCC1
  KCNQ2 block: i; KCNQ2 block baseline: -1

3 entries from above, with values under each structure:
Under each structure: KCNQ2 block	KCNQ2 block baseline
39) O=C(CNC(=O)c1cccs1)NCC(=O)OCC(=O)c1ccc([N+](=O)[O-])cc1
→ i	-0.28
36) CCc1ccccc1NS(=O)(=O)c1ccc2[nH]cc(C(=O)NCC3CCCO3)c(=O)c2c1 (stereo not drawn)
→ i	-0.07
33) NC(=O)c1ccc(CN2CCc3ccccc3C2)cc1
→ i	-0.34

Going on with the list:
item	KCNQ2 block	KCNQ2 block baseline	structure
41	i	1	NS(=O)(=O)c1ccc(N/N=C/c2ccncc2)cc1
42	i	-0.42	O=C(NCc1cccnc1)c1ccc2c(c1)OCO2
43	i	0.28	O=C(O)c1ccc(NC(=S)NC(NC(=O)c2ccco2)C(Cl)(Cl)Cl)cc1 (stereo not drawn)
44	i	0.38	O=C(NCCc1ccccc1)C1=COCCO1
45	i	-1.5	CCN(CC)CCCCN1c2ccccc2Sc2ccccc21
46	i	-0.38	Clc1nc2ccccc2cc1-c1nnn(-c2ccccc2Br)n1
47	i	0.41	COc1cccc(-c2nc(CS(=O)(=O)CC(=O)Nc3ccccc3Br)c(C)o2)c1
48	i	-1.6	CCCCn1c(N)c(N(CC(C)C)C(=O)CC2CCCCC2)c(=O)[nH]c1=O
49	i	-0.03	O=[N+]([O-])c1ccccc1S(=O)(=O)N1CCN(CC2CC3C=CC2C3)CC1 (stereo not drawn)
50	i	-0.77	CC(Sc1nnnn1-c1ccccc1)C(=O)Nc1ccccc1-c1ccccc1 (stereo not drawn)
51	-5.8*	-1.9*	COC(=O)CNC(c1ccccc1)c1cc(C)ccc1NC(=O)CNC(=O)OCc1ccccc1 (stereo not drawn)
52	i	-0.64	COc1ccc(OC)c(NC(=O)C(=O)NCCC2=CCCCC2)c1
53	i	5.2	CCOC(=O)c1cnc2c(cnn2C)c1NCCCn1ccnc1
54	i	1.4	CC(C)n1cnc2c(N(C)c3cccc(Cl)c3)nc(N(CCO)CCO)nc21
55	i	0.06	COc1cc2c(cc1NC(=O)/C=C/c1ccccc1)oc1ccccc12
56	i	-0.91	CCc1cc2c(NC(C(=O)O)C(C)C)ncnc2s1 (stereo not drawn)
57	i	2.1	CC(=O)CC1OC(=O)C(Br)=C1NCc1ccccc1 (stereo not drawn)
58	i	2.7	COc1ccccc1-c1ccc(SCC(=O)N2CCOCC2)nn1
59	i	-2.6	Cc1ccc(S(=O)(=O)NCCc2cc3ccc(C)cc3[nH]c2=O)cc1
60	i	-0.2	CN(C)c1cccc2c(S(=O)(=O)Nc3ccccn3)cccc12
61	i	-0.76	O=C(N/N=C/c1ccc(F)cc1)c1cc(-c2ccco2)nc2ccccc12
62	i	-2.4	Cc1ccc(S(=O)(=O)N2CCCCC2C(=O)NCc2ccco2)cc1 (stereo not drawn)
63	i	2.2	CCOC1OC(=O)C(Cl)=C1Nc1cc(C)ccc1C (stereo not drawn)
64	i	-0.42	COc1ccc(Br)cc1CN(C)CC(=O)Nc1cccc(S(N)(=O)=O)c1
65	i	-1.7	COC(=O)c1ccccc1NC(=O)C(=O)NCC1CCCO1 (stereo not drawn)
66	i	-1.4	Cc1ccc(CS(=O)(=O)CC(C)(O)c2ccc(Cl)cc2)cc1 (stereo not drawn)
67	i	0.03	O=C(O)C1Cc2c([nH]c3ccccc23)C(c2ccc3c(c2)OCO3)N1 (stereo not drawn)
68	i	-4	Cc1ccc(C)c(OCCn2c(=O)c3c(ncn3C3CCCC3)n(Cc3ccccc3)c2=O)c1
69	-8.4*	-0.15*	CCC(C)(C)c1ccc(OCCCC[n+]2cccc(C)c2)c(C(C)(C)CC)c1
70	i	1.7	CCOc1ccc(-c2nnc3ccc(SCC(=O)Nc4cc(C)on4)nn23)cc1
71	i	-2.1	Cc1cccc(-c2nnc(SCc3ccccc3)o2)c1
72	i	0.81	O=C(Nc1cccc(Br)c1)c1cccc(OC(=S)N2CCOCC2)c1
73	i	-0.03	COC(=O)[C@@H](Cc1c[nH]c2ccccc12)NC(=O)CNC(=O)c1ccccc1OC
74	i	-3	COc1ccc(CNC(=O)[C@@H]2CC=C[C@@H]3CCN(Cc4ccc(Cl)c(Cl)c4)C(=O)[C@@H]32)cc1
75	i	-0.58	Cc1cccc(C)c1NC(=O)c1cccc(COc2cc(Cl)ccc2Cl)c1
76	-6.7*	-0.03*	O=C1c2ccsc2SCCN1Cc1c(Cl)cccc1Cl
77	i	0.79	Cc1ccc(NC(=O)c2ccc3c(c2)OCCO3)nc1
78	i	0.08	Cc1onc(-c2ccccc2)c1CNS(=O)(=O)c1ccc(F)cc1F
79	-6.4*	-1.6*	CC(C)CNC(=O)c1oc2ccccc2c1COc1ccccc1
80	i	0.48	COC(=O)COc1cc(=O)oc2ccc(NS(=O)(=O)c3ccccc3)cc12
81	i	0.48	Cc1ccc2nc(SCC(=O)Nc3ccccc3F)nc(=O)n2c1
82	i	-0.17	O=c1[nH]c2ccccc2nc1C(Cl)c1ccccc1 (stereo not drawn)
83	i	-0.87	O=C(N/N=C/C=C/c1ccccc1)c1n[nH]c2c1CCC2
84	i	-0.23	O=C(CNC(=O)C1CCCCC1)OCc1cc(=O)oc2ccc3ccccc3c12
85	i	-0.87	CCOc1ccc(C(=O)NC2CCN(CC(=O)NCc3ccccc3)CC2)cc1
86	i	0.84	CC(=NCc1ccco1)c1c(O)n(C2CCCCC2)c(=O)[nH]c1=O
87	i	-0.18	COc1ccc(C(=O)NCc2nnc(SCC(=O)Nc3nc4ccc(C)cc4s3)o2)cc1OC
88	i	-0.38	O=C(COC(=O)CNC(=O)c1ccccc1F)Nc1cccnc1Cl
89	i	0.91	Nn1c(SCC(=O)Nc2cccc(S(N)(=O)=O)c2)nnc1C1CC1
90	i	-1.7	COc1ccc(S(=O)(=O)N2CCC(C(=O)Nc3ccccc3C)CC2)c2cccnc12
91	i	0.63	Cn1c(CCNC(=O)c2ccccc2)nc2cc(NC(=O)C3CCCCC3)ccc21
92	i	-0.57	CCOC(=O)N1CCN(S(=O)(=O)c2cc(Br)cc3c2N(C(=O)C2CC2)CC3)CC1
93	i	2	O=S(=O)(NC1CC1)c1cccc(S(=O)(=O)N2CCCC2)c1
94	i	0.81	CCn1cc(C(=O)OCc2cccc(Br)c2)c(=O)c2ccc(C)nc21
95	i	0.02	COC(=O)c1ccc(C(=O)OC)c(NC(=O)COC(=O)c2ccc(OC)c(OC)c2OC)c1
96	i	0.36	COc1cc(NC(=O)Cn2cnc(S(=O)(=O)N3CCCCC3)c2)cc(OC)c1OC

Next section
item	KCNQ2 block	KCNQ2 block baseline	structure
97	i	0.67	CN(C)S(=O)(=O)c1ccc(C(=O)Nc2nc(-c3ccccc3)c(C(=O)c3ccccc3)s2)cc1
98	i	2.3	Cc1ccc(C(=O)NCCNC(=O)c2ccc(F)cc2)cn1
99	i	0.75	O=[N+]([O-])c1ccc(Cl)c(CN2CCC(O)CC2)c1
100	i	-2.2	NNC(=O)Cn1c(-c2ccccc2)cc2ccccc21
101	i	1.8	CCCn1c(NC(=O)c2ccco2)nc2ccccc21
102	i	-0.13	CN(C)c1nc(N(C)C)nc(N(C#N)CCOc2ccccc2)n1
103	i	2.6	Cc1ccc(N(C(C)C(=O)Nc2cccc(N(C)S(C)(=O)=O)c2)S(C)(=O)=O)cc1 (stereo not drawn)
104	i	-0.01	Cc1cc(SCC(=O)Nc2ccc(O)cc2)n2nc(C)c(-c3ccccc3)c2n1
105	i	-0.02	CC(=O)c1ccc(N2CCN(C(=O)Cn3c(=S)[nH]c4ncccc4c3=O)CC2)cc1
106	i	-0.01	Cc1ccc(C)c(OCCn2cc(/C=C(\C#N)C(=O)NCc3cccs3)c3ccccc32)c1
107	i	1	CCOc1cc(C2/C(=C(/O)c3ccc(S(=O)(=O)N4CCCCC4)cc3)C(=O)C(=O)N2CCOC)ccc1O (stereo not drawn)
108	i	-2.1	O=[N+]([O-])c1cccc(-c2ccc(/C=N/NC(=S)NCc3ccco3)o2)c1
109	i	-0.2	CCCCCC(=O)NNC(=O)c1ccc(F)cc1
110	i	0.05	CC(C)c1ccc2oc(=O)cc(CN3CCN(c4ccccc4)CC3)c2c1
111	i	2.1	O=C(CCCN1C(=O)/C(=C/c2ccccc2Cl)SC1=S)Nc1ccccn1
112	i	-0.95	Cc1cccc(N2C(=O)CC(N3CCOCC3)C2=O)c1 (stereo not drawn)
113	i	-3.3	Cc1ccc(NC(=O)CN(C)CC(=O)Nc2ccccc2-c2ccccc2)cc1
114	i	1.4	CCS(=O)(=O)N1N=C(c2cccs2)CC1c1cc2cc(C)ccc2nc1Cl (stereo not drawn)
115	i	-1.3	Cc1nn(CCO)c2ncc(C(=O)c3cc(Cl)ccc3O)cc12
116	i	1.3	COc1ccc(-n2nnc3c(SC(C(C)=O)C(=O)N(C)C)ncnc32)cc1 (stereo not drawn)
117	i	4	O=C(COC(=O)c1ccc2c(c1)OCO2)Nc1ncc(Cl)cc1Cl
118	i	-0.32	CCOC1=C/C(=C/c2c(N)n3oc(C)cc3nc2=O)C=CC1=O
119	i	0.06	CC(=O)N1CCN(c2ccc(NC(=O)c3ccc(C)cc3)cc2)CC1
